Rce1 inh – inhibitors of yeast Ras-converting enzyme; yeast membranes, quenched prenylated peptide cleavage fluorescence; 290,000 compounds, 0.27% hits; calls only;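 active means fall in fluorescence gain of 50% or more versus controls, with final raw signal at or below 3038400; inconclusive means same 50% fall but final raw signal above 3038400; inactive means fall in fluorescence gain under 50%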;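 further: plate controls were neutral control wells for no effect and wells lacking membranes for full effect; tested at 10 µM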
Target sequence (Q03530 whole entry, looked up): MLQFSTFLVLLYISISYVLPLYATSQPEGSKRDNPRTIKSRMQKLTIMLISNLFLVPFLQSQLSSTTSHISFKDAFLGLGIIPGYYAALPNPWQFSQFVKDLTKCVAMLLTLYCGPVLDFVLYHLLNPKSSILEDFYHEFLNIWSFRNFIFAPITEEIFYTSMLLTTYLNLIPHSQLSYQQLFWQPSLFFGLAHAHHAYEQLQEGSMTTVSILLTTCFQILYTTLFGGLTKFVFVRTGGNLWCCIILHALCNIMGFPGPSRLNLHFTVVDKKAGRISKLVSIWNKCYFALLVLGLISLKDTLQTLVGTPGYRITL
UUG fidelity – modulators of start codon recognition fidelity in yeast | activity score, % at 18.7 µM | S. cerevisiae UUG-firefly luciferase reporter, luminescence/redox ratio | AID 602363 | 350,000 compounds, 0.13% hits;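 active means replicate mean at a twofold rise or more, about +100% in these data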;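 further: firefly luciferase made from a UUG start codon reports start codon fidelity; reporter light over untreated wells divided by growth signal over untreated wells; some hits fall short of that in this replicate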
MT1-MMP act inh – blocks activation of human MT1-MMP; P50281; HT1080 RFP-PRO-GFP cells, GFP/RFP ratio fluorescence, overnight; percent of plate control window, DMSO zero; GFP/RFP ratio change, % at 20 µM; 360,000 compounds, 0.061% hits; AID 651647;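 active means GFP/RFP ratio change of at least 30% with cell ATP level not reduced by more than half and red fluorescence within 50% of control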; further: strong numbers were not always called active
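Material: RFP-PRO-GFP reporter HT1080 cells. Dosing: single-point 20 µM compound, 1% DMSO. Controls: DMSO and RFP-L50D-GFP cell wells. Timing: cells overnight before dosing, compound overnight, 37 °C, 5% CO2. Measure: GFP/RFP fluorescence ratio.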
eIF4H inh – inhibitors of RNA binding by human eIF4H; 290,000 compounds, 0.94% hits; inhibition, % at 35 µM; eIF4H fluorescence polarization binding assay; Q15056;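 active means 50% or more with normal probe brightness, or confirmed in later tests; inconclusive means above 50% with abnormal brightness, or retests that disagree; inactive means below 50% or failed in later tests; about a fifth of its hits are not listed in these tables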;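 further: calls also rest on retests at 20 µM and on dose response follow-up; 0% = protein and probe with vehicle and 100% = probe without protein; strong numbers were not always called active; many hits fall short of the cut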
CSC inhib – cancer stem cell inhibition. cancer stem cell-like cells viability, luminescence. inhibition, % at 7.5 µM. 300,000 compounds, 1.1% hits;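 active means mean at 75% or more and at least half the replicates too; inconclusive means mean and replicates disagree; tested in HMLE shEcad cells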;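 further: 0% = median of negative and 100% = median of positive control wells; the first replicate is given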
PABP FP inh – blocks human PABP binding to poly(A) RNA. fluorescence polarization. P11940. 290,000 compounds, 1% hits. AID 2014. inhibition, % at 35 µM;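 active means 50% or more with normal probe brightness, or confirmed in later tests; inconclusive means above 50% with abnormal brightness, or retests that disagree; inactive means below 50% or failed in later tests; about a fifth of its hits are not listed in these tables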;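 further: calls also rest on retests at 20 µM and on dose response follow-up; controls were probe without protein and protein plus probe with vehicle; some compounds called inactive have numbers as strong as hits; many hits fall short of the cut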
Env fusion inh – HIV envelope-mediated fusion inhibition | HeLa-JRFL Env/CEM21 cell fusion, luciferase | inhibition, % at 12.3 µM | 360,000 compounds, 1.1% hits | AID 651610;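 active means mean replicate inhibition score of at least 50 and every replicate individually at or above 50; inconclusive means only one of the two criteria met; inactive means mean below 50 and not all replicates reaching 50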;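 further: 0% = plate neutral controls and 100% = maraviroc near 300 nM; one replicate is shown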
MT1-MMP act inh RFP – recorded beside MT1-MMP act inh, whose call it bears; RFP signal change, %; measured here: RFP expression control read;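 0 = vehicle wells; hits needed this value within 50% of zero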
An asterisk follows results filed as active; i = inactive; ? = inconclusive; / = not tested or not shown. Only part of the results is shown (hit frequency here may not be typical).

SMILES	Rce1 inh	UUG fidelity	MT1-MMP act inh	MT1-MMP act inh RFP	eIF4H inh	CSC inhib	PABP FP inh	Env fusion inh
O=C(Nc1ccc(NC(=O)c2ccc([N+](=O)[O-])cc2[N+](=O)[O-])cc1)c1ccco1	i	-10.2	1.2	1.3	-7.0	-9.3	7.2	-15.6
CCN(CC)S(=O)(=O)c1cccc(NC(=O)c2ccc(Br)cc2)c1	i	/	-6.6	-18.9	-11.6	-16.6	-4.4	10.5
CC(=O)N(Cc1ccco1)C1(C(=O)NC2CCCCC2)CCCCC1	i	5.4	-2.8	-0.5	-4.3	-1.4	-0.2	/
COc1ccc(C(=O)CN2C(=O)NC3(CCc4ccccc43)C2=O)c(OC)c1 (stereo not given)	i	/	1.5	-0.8	/	-18.0	/	/
Cn1cccc1C1C(C#N)=C(N)OC2=C1C(=O)CC(C)(C)C2 (stereo not given)	i	-3.4	-0.9	1.6	9.0	-5.4	0.4	-3.0
Cc1ccc(/C=N/NC(=O)CNC(=O)c2cccc([N+](=O)[O-])c2C)o1	i	/	4.8	3.9	3.3	-3.5	-2.6	-7.4
O=C(CCOc1ccccc1)Nc1nnc(-c2ccc3c(c2)OCCO3)o1	i	-7.2	2.8	1.1	-8.6	3.6	3.2	0.6
Cc1cc(C)n(C(=O)c2ccncc2)n1	i	/	/	/	-4.8	/	-6.6	/
Cc1ccc(C)c(OC(=O)CN2C(=O)c3ccccc3C2=O)c1	i	-7.2	3.0	5.2	-1.8	-8.8	1.2	5.9
O=C(NC(=S)N1CCOCC1)c1ccc([N+](=O)[O-])cc1	i	/	2.6	9.2	-0.4	-3.5	0.9	-35.4
C=CCC(=O)NC1CC(C)(C)Cc2c1cnn2-c1ccc(C)cc1 (stereo not given)	i	-10.4	-1.3	-2.1	-6.8	-4.7	-0.4	26.3
Cc1sc2ncnc(NCCN3CCOCC3)c2c1C	i	-12.3	-0.6	-13.1	11.4	/	-0.3	22.9
Cc1ccc(-c2cc(C(=O)N3CCCC3)c3ccccc3n2)s1	?	-9.1	0.9	-0.3	-4.0	-7.1	17.6	-3.8
Cc1ccccc1N1CCN(Cc2ccc([N+](=O)[O-])o2)CC1	/	7.1	4.1	1.8	-1.5	-4.1	3.6	-2.9
Cn1c(=O)[nH]c(=O)c2c1nc(Br)n2Cc1ccc(Cl)cc1	/	5.3	5.1	2.5	/	/	/	9.2
O=C1C=C(NCc2ccccc2)C2(CCCCC2)O1	i	-3.7	0.6	-1.3	1.5	4.5	1.1	-15.7
Cc1cccc2cc(/C=N/Nc3ccc(C(=O)O)cc3)c(Cl)nc12	/	/	-12.9	1.1	-1.0	-2.2	-5.1	-313.3
CCN(CC(=O)Nc1ccc(NC(C)=O)cc1)C(=O)C1CC(=O)N(CCc2ccc(OC)c(OC)c2)C1 (stereo not given)	i	-5.8	-0.2	3.2	/	-3.8	/	-1.2
Cc1ccnc(NC(=O)Cn2ccc([N+](=O)[O-])n2)c1	i	/	-1.5	1.2	4.7	-0.7	1.9	/
CC(Nc1nc(-c2cccnc2)nc2ccccc12)c1ccccc1 (stereo not given)	/	-14.1	-1.1	-5.0	/	/	/	8.7
O=C1Nc2ccccc2C(O)(C(=O)N2CCCCC2)N1c1ccccc1 (stereo not given)	i	5.5	-0.6	7.8	-10.4	-2.6	-7.7	/
Cc1ccc(/C=N/Nc2cc(C)nc(N3CCOCC3)n2)cc1	i	/	-2.1	-4.9	-0.3	-1.9	-10.6	-10.3
Cc1ccc(CN2CCN(/N=C\c3cccc([N+](=O)[O-])c3)CC2)cc1	i	-3.1	0.6	-3.2	-3.5	16.9	12.0	12.5
O=C(CCc1ccc(S(=O)(=O)N2CCOCC2)cc1)Nc1ccc(F)c(F)c1F	/	-11.7	2.9	-4.1	/	-3.2	/	9.0
O=C(c1ccc(F)cc1)c1ccc(OCC(=O)N2CCOCC2)cc1	/	-17.1	0.3	0.3	/	-7.5	/	-2.2
COC(=O)c1ccc(CSc2ccc3nnc(-c4ccc(OC)c(OC)c4)n3n2)o1	/	/	-3.0	-1.8	/	5.1	/	18.5
CCCn1nnnc1NCc1cccc(OC)c1	i	2.2	2.0	4.0	-11.8	-11.5	-6.0	-1.0
CC(C)(C)NC(=O)CN(C(=O)CCC(=O)Nc1nccs1)c1ccccc1F	/	-26.0	-1.0	1.5	/	/	/	11.4
Cc1cccc(N2CCN(C(=O)c3nn(C)c4c3CS(=O)(=O)c3ccccc3-4)CC2)c1C	i	-8.2	-2.6	-3.8	-4.9	4.1	-4.5	11.7
CC(/C=N/NC(=O)c1ccncc1)=C\c1ccc(C(C)C)cc1	i	/	6.7	0.6	-3.5	12.0	-7.2	-32.3
c1ccc(NC2=NCCN2CCC2CCCCC2)cc1	i	-15.8	1.3	1.6	-13.8	3.6	-4.9	-1.2
COc1cccc(CNS(=O)(=O)c2cc(CN3C(=O)c4cccnc4C3=O)ccc2OC)c1	i	-17.0	-2.6	3.6	-1.3	-5.5	3.8	6.3
O=C(NCCCN1CCOCC1)c1cc(-c2ccc(F)cc2)nc2ccccc12	/	7.4	-2.2	1.5	/	-13.4	/	/
Cc1cc(C)n2nc(C(=O)NCc3ccco3)nc2n1	i	-6.8	-3.1	-1.0	/	-13.1	/	/
CS(=O)(=O)N1CCCC(C(=O)Nc2ccc3c(c2)OCCO3)C1 (stereo not given)	i	-9.4	6.4	1.2	-4.6	-2.1	-5.0	-4.3
COc1ccc(/C=C/S(=O)(=O)NCc2ccccc2)cc1OC	i	-12.5	2.1	1.3	6.9	1.6	-3.6	2.2
O=C(NCC1CCCO1)C1CCCN(S(=O)(=O)c2cccc3nsnc23)C1 (stereo not given)	i	-14.2	-4.5	1.3	-3.5	-3.2	-4.2	-175.8
O=C(NCc1ccccc1Cl)c1cc(C(=O)C2CC2)c[nH]1	i	-9.2	4.5	-6.2	-9.7	6.8	8.8	21.8
CC(C)(C)c1cc(CCC(=O)N2CCNCC2)c(C(C)(C)C)cc1O	i	-0.4	2.5	3.4	-6.3	20.7	-11.9	-114.1
CC(=O)c1cnc2nc(C(F)(F)F)nn2c1C	i	-8.1	-1.4	11.5	33.1	7.9	31.7	/
COCCNC(=O)CN1C(=O)CSc2ncccc21	i	-5.7	-1.4	5.5	-4.7	-9.9	-13.4	-5.6
COc1ccc(NC(=O)CCCSc2ccccc2)cc1S(N)(=O)=O	i	2.3	1.1	-1.7	-3.8	-9.3	10.1	-13.1
COC(=O)C(CCSC)NC(=O)CNS(=O)(=O)c1ccc(Cl)cc1 (stereo not given)	i	-13.6	2.1	9.1	-16.0	-24.1	-1.1	-26.1
Nn1c(SCc2cn3ccccc3n2)nnc1-c1ccncc1	i	/	-0.7	3.2	-3.7	-5.7	-14.8	17.4
CC(C)Oc1ccc(C(=O)O)cc1	i	-19.6	-2.9	3.6	-4.5	-10.6	-4.1	1.0
O=C(CCCCCNC(=O)c1ccccc1Br)N=Nc1c(O)[nH]c2ccccc12	i	/	-2.9	-0.9	6.4	-15.8	7.3	-2.0
CN1CCN(c2ccc(NC(=S)NC(=O)c3cccc4c(Cl)cccc34)cc2)CC1	i	-22.7	5.8	-0.6	3.3	-8.3	-25.6	-14.1
O=C(NCc1ccco1)c1cc2ccccc2o1	i	-26.9	4.0	5.2	13.6	-8.3	-1.6	/
CCOc1ccc(NC(=S)NCc2ccco2)cc1	i	/	6.0	3.7	3.0	-14.0	-7.1	-4.3
O=S(=O)(N/N=C/c1ccc(N2CCOCC2)cc1)c1ccc(Br)cc1	i	-9.9	3.4	3.8	-4.4	6.2	1.6	-29.9

Profiles, looked up by structure:
O=C(NCc1ccco1)c1cc2ccccc2o1 is listed with Rce1 inh: i; UUG fidelity: -26.9; MT1-MMP act inh: 4.0; MT1-MMP act inh RFP: 5.2; eIF4H inh: 13.6; CSC inhib: -8.3; PABP FP inh: -1.6; Env fusion inh: /
COCCNC(=O)CN1C(=O)CSc2ncccc21 is listed with Rce1 inh: i; UUG fidelity: -5.7; MT1-MMP act inh: -1.4; MT1-MMP act inh RFP: 5.5; eIF4H inh: -4.7; CSC inhib: -9.9; PABP FP inh: -13.4; Env fusion inh: -5.6

Carrying on:
SMILES	Rce1 inh	UUG fidelity	MT1-MMP act inh	MT1-MMP act inh RFP	eIF4H inh	CSC inhib	PABP FP inh	Env fusion inh
CCc1nc2sccc2c(=O)[nH]1	i	-11.1	-0.2	3.3	7.1	/	28.8	2.1
CCOC(=O)N1CCN(S(=O)(=O)c2ccc(C(=O)Nc3nnc(C)o3)cc2)CC1	i	-26.8	-3.0	-9.1	-4.5	-9.3	7.9	-6.3
CS(=O)(=O)N1CCSC1c1ccc(Br)cc1 (stereo not given)	i	-12.8	0.0	-2.0	-6.9	-24.7	-20.3	12.4
Cc1ccc(C)c(N=C2NC(=O)CS2)c1	i	-20.1	1.0	0.8	13.0	-4.5	-4.6	/
CC(=O)c1ccc(S(=O)(=O)N2CCN(c3ccnc4cc(Cl)ccc34)CC2)cc1	/	-8.1	-5.2	-21.1	/	/	/	32.8
COc1ccc(C(=O)C2CCCN(S(=O)(=O)c3cccnc3)C2)c(C)c1 (stereo not given)	i	-7.6	-2.6	-1.2	-4.1	-1.9	-8.1	-2.9
CN1CCN(c2ccccc2NC(=O)c2ccc([N+](=O)[O-])o2)CC1	i	20.3	8.4	-6.2	6.0	26.8	4.0	/
Cc1ccc(S(=O)(=O)NCC(=O)N(CC(=O)NCC2CCCO2)c2cccc(F)c2)cc1 (stereo not given)	i	-2.5	-0.9	2.6	-7.1	/	-1.4	2.0
Cc1ccc(NC(=O)COC(=O)Cc2ccsc2)cc1S(=O)(=O)N(C)C	i	-11.6	3.8	2.7	-5.7	-10.9	1.3	-10.5
CCC(OC(=O)CN1C(=O)C(=O)c2ccccc21)C(=O)Nc1ccccc1OC (stereo not given)	i	-1.0	-2.1	5.9	-7.6	/	-2.7	-2.7
Cc1onc(-c2ccccc2)c1C(=O)Oc1cccnc1	i	7.9	2.2	-3.0	-2.6	-1.6	9.0	1.6
CC(=O)c1ccc(Cc2ccc(C(C)=O)cc2)cc1	i	/	-1.5	-1.0	9.4	0.5	-3.1	6.6
CCCCOC(=O)C(C)Nc1n[nH]c(=S)[nH]c1=O (stereo not given)	i	/	/	/	8.4	-3.0	12.5	-20.1
Cc1ccc(SCC(=O)NC2CC3CCC(C2)N3C)cc1 (stereo not given)	i	/	-0.8	2.4	8.3	-3.3	23.4	-0.6
O=C(NCCc1ccccc1C(F)(F)F)C1CCC(=O)N(C2CC2)C1 (stereo not given)	i	-5.2	0.9	3.6	-5.2	-7.2	-3.5	-3.3
O=C(CSc1nnnn1-c1ccc(F)cc1)Nc1nc2ccccc2s1	i	-15.1	-1.3	-4.0	-4.0	3.2	-7.4	8.6
CCn1c(C)nnc1SCC(=O)Nc1ccc(N2CCOCC2)cc1	i	-10.8	3.2	0.0	-8.4	-8.2	-11.3	-7.4
CCOC(=O)c1c(CC(C)C)csc1NC(=O)c1ccccc1C(=O)O	i	-3.3	-1.9	0.5	-5.2	0.6	0.4	-0.4
CCc1ccc(C(=O)CN2C(=O)C(C)N(c3ccc(C)cc3)C2=O)cc1 (stereo not given)	i	-15.6	2.8	-0.7	-5.8	-11.1	10.5	7.1
CCOP(=O)(OCC)C(Nc1ccccc1)c1cccnc1 (stereo not given)	i	-17.3	-0.2	2.2	-3.1	1.8	-4.3	14.6
COc1ccc(C2c3c(ccc4ccccc34)Oc3ncn4nc(-c5ccco5)nc4c32)cc1 (stereo not given)	i	4.2	7.0	7.1	-9.4	-4.4	-10.4	17.2
Cn1cccc1C(=O)NC(=O)COC(=O)c1ccc(S(C)(=O)=O)c([N+](=O)[O-])c1	/	-7.9	-0.6	-6.5	/	53.5	/	/
CCCC(=O)Nc1ccc(Cl)c(NC(=O)CC)c1	i	-8.2	2.8	0.8	-6.6	-0.4	-2.9	/

High-throughput results as filed in PubChem.
